Screening data from PubChem.
Calb FLC: C. albicans growth modulation with fluconazole. AID 1979. growth inhibition, % (no concentration beside the values). C. albicans CaCi-2 (fluconazole-resistant clinical isolate) + fluconazole, Alamar Blue growth, 48 h. actives 0.57% (n = 300,000);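 active = most replicates above 75%; inconclusive = exactly half above 75%; inactive = most below 75%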;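 also: all wells also contain fluconazole at 8 µg/ml as a sub-toxic cotreatment; 0% = median of DMSO wells and 100% = median of geldanamycin control wells; wells of about 8 µL received 7.5 nL stock; the first replicate is given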
T cruzi repl: blocks replication of Trypanosoma cruzi. AID 1885. inhibition, % (concentration not given with the values). T. cruzi beta-gal in NIH3T3, luminescence, 90 h. actives 1.4% (n = 300,000);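 active = mean inhibition across valid replicates above about 55%, limit read from the data; inconclusive = mean below that limit but half or more replicates reach it; inactive = mean below it, under half of replicates reach it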;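 also: signal also drops with host cell toxicity which is not excluded here; 0% = plate median of DMSO wells and 100% = zero luminescence signal; higher percent means less beta-gal luminescence so fewer parasites; stock transfer was 50 nL into about 50 µL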
MLL AF4-AF9 inh: MLL-AF4/AF9 protein interaction inhibition; P42568; AlphaScreen, biotin-AF4 peptide binding to FLAG-AF9; inhibition, % at 10 µM; actives 0.47% (n = 350,000);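 active = every replicate reaching a set inhibition limit, whatever the replicate mean, cut at about 25% in these data; inconclusive = mean inhibition reaches that limit but some replicates miss it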;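 also: 0% = plate neutral control median and 100% = total signal loss; the record names both 10 and 1 µM as test concentration; the first replicate is given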
LANA-H2A inh: blocks KSHV LANA binding to histone H2A/H2B; Q9QR71; cell-free LANA-H2A/H2B peptide, fluorescence polarization; inhibition, % (test concentration not listed); actives 0.6% (n = 320,000); AID 2629; in the data active = inhibition mostly above about 10%, no sharp cut-off; inactive = mostly below about 6.7%;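 also: stock transfer was 7.5 nL into about 10 µL; 0% = median of vehicle wells and 100% = median of positive control wells; one replicate is shown; the record names a cut of 25% in any replicate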
Target sequence (Q9QR71 whole entry, looked up): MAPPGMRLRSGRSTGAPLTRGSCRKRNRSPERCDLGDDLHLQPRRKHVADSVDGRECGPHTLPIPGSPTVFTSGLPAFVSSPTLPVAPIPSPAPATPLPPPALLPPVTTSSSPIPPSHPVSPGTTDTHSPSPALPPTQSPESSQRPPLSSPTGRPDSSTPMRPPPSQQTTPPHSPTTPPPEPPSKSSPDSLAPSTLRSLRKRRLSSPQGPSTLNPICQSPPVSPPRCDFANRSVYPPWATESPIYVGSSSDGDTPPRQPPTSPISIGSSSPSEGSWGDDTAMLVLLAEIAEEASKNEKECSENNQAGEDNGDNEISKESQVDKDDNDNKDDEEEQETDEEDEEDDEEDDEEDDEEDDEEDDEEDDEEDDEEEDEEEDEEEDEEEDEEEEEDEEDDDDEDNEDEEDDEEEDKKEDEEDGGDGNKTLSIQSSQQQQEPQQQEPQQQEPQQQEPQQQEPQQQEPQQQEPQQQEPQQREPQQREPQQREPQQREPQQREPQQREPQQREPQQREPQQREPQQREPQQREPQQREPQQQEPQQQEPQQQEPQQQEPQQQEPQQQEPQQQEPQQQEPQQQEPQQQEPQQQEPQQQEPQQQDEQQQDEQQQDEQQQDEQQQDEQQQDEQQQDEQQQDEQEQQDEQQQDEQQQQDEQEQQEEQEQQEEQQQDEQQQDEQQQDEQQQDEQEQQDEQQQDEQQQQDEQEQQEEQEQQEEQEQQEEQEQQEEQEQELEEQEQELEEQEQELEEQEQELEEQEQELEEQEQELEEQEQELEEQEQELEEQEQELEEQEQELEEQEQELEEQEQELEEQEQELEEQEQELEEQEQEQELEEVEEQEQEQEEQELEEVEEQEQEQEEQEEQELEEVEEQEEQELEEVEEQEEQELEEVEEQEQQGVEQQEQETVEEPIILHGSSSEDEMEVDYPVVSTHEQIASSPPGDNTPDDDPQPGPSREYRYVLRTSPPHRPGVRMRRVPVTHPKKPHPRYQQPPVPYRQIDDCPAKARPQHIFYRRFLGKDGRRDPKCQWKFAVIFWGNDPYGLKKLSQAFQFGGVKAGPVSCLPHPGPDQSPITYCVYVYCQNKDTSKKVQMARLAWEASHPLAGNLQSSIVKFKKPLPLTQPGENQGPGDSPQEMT
Vif TR-FRET: HIV-1 Vif–A3G interaction blockers – biochemical, TR-FRET, GST-Vif 1-94, biotin-A3G peptide, dose response retest, primary screen (AID 1117319). TR-FRET GST-Vif / biotin-A3G peptide binding; higher % means a stronger effect; test concentration not given here; strong numbers were not always called active. one-dose inhibition, %; IC50 in µM for titrated hits. actives 0.57% (n = 260,000);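 active = above the screen mean plus three standard deviations and confirmed in dose response; inconclusive = results disagree or hit not tested in dose response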;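 also: Vif residues 1-94 fused to GST binding biotinylated APOBEC3G peptide 110-148; 0% = full assay without inhibitor and 100% = GST in place of GST-Vif; retest series ran down from 100 µM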
Beta cell apopt: blocks beta cell apoptosis; protection from apoptosis, % (concentration not given with the values); AID 435005; INS-1E cytokine-induced death, ATP luminescence, 48 h; percent of positive-control rescue, neutral wells zero; actives 0.8% (n = 300,000);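 active = all replicates at 75% or more, or half of them and the mean; inconclusive = half reach 75% but not the mean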;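 also: 0% = cytokine-treated negative control wells and 100% = positive control rescue; higher means more ATP so stronger rescue from cytokine killing; wells of about 40 µL received 100 nL stock; the first replicate is given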
RanGTP-Imp inh: disruptors of Ran-importin-beta complex formation – biochemical, FRET, CFP-Ran, YFP-importin-beta, homogeneous, primary screen. AID 2216. actives 1.1% (n = 300,000). cell-free CFP-Ran/YFP-importin-beta FRET ratio. inhibition, % (no concentration beside the values);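 active = most replicates above 15%; inconclusive = exactly half above 15%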;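 also: 0% = DMSO wells and 100% = Ran loaded with GDP instead of GTP; wells of about 40 µL received 100 nL stock; the first replicate is given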
A1 inh: inhibitors of the anti-apoptotic protein A1, read as caspase activation; caspase activation, % (concentration not given with the values); actives 0.066% (n = 330,000); AID 2462; MEF A1-2A-BIM cells, Caspase-Glo 3/7 luminescence, 3 h; percent of clofoctol response, vehicle zero;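 active = over half of replicate activation scores above 10%, or exactly half above 10 with the replicate mean above 10; inconclusive = replicate mean below 10 yet half the replicates above 10; inactive = over half of replicates below 10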;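 also: wells of about 30 µL received 50 nL stock; many hits fall short of the cut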
Numbers without * were called inactive; ? = inconclusive; . = no result given.

SMILES	Calb FLC	T cruzi repl	MLL AF4-AF9 inh	LANA-H2A inh	Vif TR-FRET	Beta cell apopt	RanGTP-Imp inh	A1 inh
N#Cc1ccc(CN2CCN(CC(=O)NCCc3ccc(Cl)cc3Cl)CC2)cc1	3	24	-2.2	0.4	.	-7	2.0	-0.3
CC(=O)Nc1cccc(NC(=S)Nc2ccc(F)c(Cl)c2)c1	5	19	1.0	-0.9	-10%	2	5.4	0.9
O=C(C[n+]1cc(-c2ccc(Cl)cc2)n2c1CCCCC2)c1ccccc1	37	21	-0.9	-3.6	-4%	4	2.7	1.7
COc1ccc(S(=O)(=O)N2CCOC23CCN(S(=O)(=O)c2ccc([N+](=O)[O-])cc2)CC3)cc1	6	61*	-0.1	-1.0	1%	14	-1.5	0.3
Cc1cc(C)cc(NC(=O)CSc2cc(C(=O)c3nccn3C)c3ccccc3n2)c1	?	10	.	0.9	17%	6	3.3	0.1
COc1ccccc1C(=O)OCCCN=C1NS(=O)(=O)c2ccccc21	-9	-9	-1.6	-3.0	-1%	0	2.5	0.7
COc1cccc(N2CCN(C(=O)CCS(=O)(=O)c3ccc4c(c3)oc(=O)n4C)CC2)c1	11	-10	-15	-9.1	.	-4	2.3	-0.1
COCCCn1c(SCC(=O)Nc2ccc(C(C)=O)cc2)nc2ccccc2c1=O	10	6	.	-0.9	-2%	1	0.9	-0.8
Cc1ccc(/C=C/C(=O)Nc2ccncc2)o1	2	-2	.	1.7	26%	2	-1.4	0.3
Clc1cccc(Cl)c1CSc1nnc(/C=C/c2ccccc2)o1	-1	4	.	3.2	5%	8	-2.6	0.4
O=C(CNC(=O)c1ccc2ccccc2c1)NCc1ccccc1F	-18	-3	-1.2	3.2	.	0	-1.3	0.4
COc1cc(C(=O)Nc2ccc(NC(=O)C3CCCCC3)nc2)cc(OC)c1OC	10	6	1.6	.	1%	.	-0.6	.
CCN(CC(=O)NC(C)C)C(=O)[C@@H](NC(=O)c1ccco1)C(C)C	-12	-12	4.8	-2.8	0%	1	3.3	0.1
O=C(COC(=O)c1ccc(-c2ccc([N+](=O)[O-])cc2)o1)NC(=O)NC12CC3CC(CC(C3)C1)C2	-28	10	5.1	-8.3	.	-10	1.3	0.5
O=[N+]([O-])c1ccccc1/C=N/N1CCN(c2ccccn2)CC1	2	7	.	1.7	-4%	2	-1.7	-1.5
O=c1[nH]c2ccccc2cc1-c1nnn(-c2ccccc2)n1	-7	-14	.	5.2	.	-2	-1.4	0.2
Cc1cc(C)n(S(=O)(=O)c2ccc(F)cc2)n1	3	-8	-1.4	2.1	.	-5	3.4	0.5
CN(C)S(=O)(=O)c1ccc(Cl)c(NC(=O)COC(=O)CNC(=O)c2ccco2)c1	2	-23	-1.9	-5.3	3%	-7	0.4	-0.9
CCCCC(=O)Nc1cc(NC(=O)CC)ccc1Cl	-5	-11	.	0.4	-5%	0	6.4	1.9
COc1ccccc1CNC(=O)CCCc1ccccc1	3	-13	-5.3	-6.8	0%	-5	0.8	0.5
CC1=C(C(=O)Nc2ccccc2)C(c2cccs2)NC(=O)N1 (stereo not given)	-7	-3	1.0	-5.2	-6%	-2	3.4	1.0
O=c1[nH]c(=O)n(C2CCCCCC2)c(O)c1C=NCc1ccc(F)cc1	-2	-4	.	-1.6	1%	-11	-1.3	-0.8
CCO/C=N/c1c(C#N)c(CC#N)nn1-c1ccccc1	-8	-10	.	-0.2	12%	1	1.8	0.4
Cc1ccc(NC(=O)CCNC(=O)c2ccc(Cl)cc2)cc1C	1	6	-2.4	-1.6	-1%	-5	-0.7	0.9
CCOc1ccc(NC(=O)C(Cc2ccccc2)NC(=O)C2CCCCC2)cc1 (stereo not given)	-18	-26	.	-3.7	-2%	-3	0.7	0.1
Cc1c(C(=O)OCc2ccccc2)nnn1-c1nonc1N	1	-13	.	11	-3%	1	2.1	-0.2
CCOc1cc(N2CCOCC2)c(OCC)cc1NC1=NCCCCC1	-4	-34	.	5.1	?	1	-0.3	0.1
O=C1Nc2ccc(Cl)cc2C12OCCCO2	6	-4	-0.4	-1.3	.	.	-1.6	-0.4
O=C(CSc1ccc(-c2ccncc2)nn1)N1CCN(c2ccccc2)CC1	7	4	-1.0	4.7	?	-10	?	0.7
COc1ccc2oc(=N)c(C(=O)Nc3ccc(Cl)cc3)cc2c1	2	2	4.0	2.8	.	1	-7.4	0.1
COC(=O)c1ccc(-c2sc3nc(N4CCOCC4)c4c(c3c2N)CCCC4)o1	-2	67*	.	1.4	-2%	6	10	-0.1
COc1ccc(NC(=O)c2cc(-c3cccnc3)nc3c(C)c(C)ccc23)c(OC)c1	15	56*	4.8	2.0	1%	11	1.7	0.5
Cc1ccc(C(=O)NCCNC(=O)COc2ccc(C)c(C)c2)cn1	0	-7	0.4	11	.	0	-1.8	0.6
CCCn1c(N)c(N(CCOC)C(=O)C(C)Oc2ccc(F)cc2)c(=O)[nH]c1=O (stereo not given)	-1	1	-0.4	-5.0	5%	2	-2.3	-0.3
COc1ccc(OC)c(N(CC(=O)Nc2cccnc2)S(=O)(=O)c2ccc(C)cc2)c1	-1	-15	3.6	1.5	-2%	8	1.9	0.1
O=C1CC(c2ccccc2)CC(O)=C1C=NC1CCCCC1 (stereo not given)	-11	4	.	0.1	2%	4	5.5	1.4
Cc1ccc(NC(=O)COC(=O)CCc2c(C)nc3ncnn3c2C)cc1	.	.	-7.2	3.8	-12%	4	.	2.7
COCCCN1C(=O)C(=O)/C(=C(/O)c2ccc(S(=O)(=O)N3CCCCC3)cc2)C1c1ccc(O)cc1 (stereo not given)	-10	-7	2.0	3.8	.	-7	0.9	0.1
Cc1cccc(NC(=O)COC(=O)C2COc3ccccc3O2)c1C (stereo not given)	.	.	-0.6	-1.9	1%	1	.	0.3
Cc1cccc(CN2CCCC(C(=O)N3CCCCC3)C2)c1 (stereo not given)	4	25	-3.6	3.1	-2%	-1	2.3	-0.8
COc1ccccc1NS(=O)(=O)c1ccc(C(=O)N2CCN(c3ccccc3)CC2)cc1	.	.	2.4	1.2	6%	4	.	0.2
O=C(Nc1ccc([N+](=O)[O-])cn1)c1ccc2c(c1)OCO2	1	-15	-0.3	0.3	15%	.	-4.4	-3.7
NC(=O)c1ccc(C(F)(F)F)n(Cc2c(Cl)cccc2Cl)c1=O	3	-2	.	2.3	-2%	-3	3.3	1.5
Cc1sc2nc(C3CCCCC3)nc(SCC(=O)N3CC(=O)Nc4ccccc43)c2c1C	6	-14	.	-2.2	-107%	-7	-4.1	0.0
C/C(=N\NC(=O)CNc1cccc(C(F)(F)F)c1)c1cccc(Br)c1	5	5	.	2.3	.	-9	7.4	-0.4
COCC(=O)NC(C)c1nc2ccccc2[nH]1 (stereo not given)	6	-14	.	-0.5	-1%	-3	0.9	?
COc1ccc(/C=N/NC(=O)COc2ccc3ccccc3c2)c(C(=O)O)c1OC	0	-6	-9.9	-1.5	.	-1	-0.3	-0.7
O=C(COC(=O)c1cccnc1Cl)Nc1nc(-c2ccccc2)cs1	-6	-9	.	0.9	6%	-3	0.9	-3.8

Individual results from the entries so far:
Value of NC(=O)c1ccc(C(F)(F)F)n(Cc2c(Cl)cccc2Cl)c1=O under LANA-H2A inh: 2.3
Value of O=C(Nc1ccc([N+](=O)[O-])cn1)c1ccc2c(c1)OCO2 under A1 inh: -3.7

Next section.
SMILES	Calb FLC	T cruzi repl	MLL AF4-AF9 inh	LANA-H2A inh	Vif TR-FRET	Beta cell apopt	RanGTP-Imp inh	A1 inh
O=C(CCN1C(=O)C2C3CCC(C3)C2C1=O)Nc1ccc(F)cc1 (stereo not given)	3	-9	-1.9	.	.	.	8.5	.
COCC1CCN(Cc2nc(COc3ccccc3)no2)C1 (stereo not given)	1	-7	1.6	3.7	.	-3	-4.6	-0.1
Cc1ccccc1N/C(=N/S(=O)(=O)c1ccccc1)c1ccc(F)cc1	-3	7	1.1	4.5	-1%	-1	1.1	0.0
Nc1nnc(/C=C/c2cccc([N+](=O)[O-])c2)s1	-5	-1	3.8	9.3	5%	2	-3.0	-0.8
COC(=O)CN1C(=O)[C@H]2[C@@H](c3ccc(C)o3)N3C(=O)CN(Cc4ccccn4)C(=O)[C@@]3(Cc3ccccc3)[C@H]2C1=O	8	-11	-1.2	1.0	.	-6	-2.2	0.3
Cc1ccc2cc(C(c3nnnn3C3CCCC3)N(Cc3ccco3)Cc3cccs3)c(=O)[nH]c2c1 (stereo not given)	14	63*	.	-1.1	12%	-1	8.0	0.1
CC(/C=N/NC(=O)c1cc(C(C)(C)C)[nH]n1)=C\c1ccccc1	-3	7	.	1.1	3%	9	0.1	0.1
CCOc1ccc(C(=O)N/N=C/c2cc(Cl)ccc2[N+](=O)[O-])cc1	-3	2	.	1.1	-7%	-10	1.2	-0.3
CN(C)c1ccc(N=Cc2cccn2C)cc1	85*	44	50*	-2.9	.	7	-0.7	0.5
COc1ccc(/C=N/NC(=O)c2cccc([N+](=O)[O-])c2)cc1O	-7	-5	-2.2	-1.3	?	-2	2.5	-2.5
Cc1ccc(S(=O)(=O)N2CCN(C(=O)COC(=O)CCc3ccccc3)CC2)c(C)c1	.	.	0.1	-4.1	-8%	-2	.	-0.1
COc1ccc(C(=O)NCc2nnc(SCC(=O)N3CCCc4ccccc43)o2)cc1OC	?	-12	0.5	-1.3	0%	-3	-0.5	-0.1
Cc1cc(=O)oc(C)c1C(=O)Nc1cccc2ccccc12	1	-5	.	0.6	1%	1	-2.0	-0.5
COc1ccc(CSc2nnnn2-c2ccc(C(N)=O)cc2)cc1[N+](=O)[O-]	9	-17	2.3	0.1	2%	.	1.6	-0.5
Cc1ccc(C)c(N2CCN(C3CCCC(C)C3)CC2)c1 (stereo not given)	1	8	7.7	2.4	.	10	-1.9	-4.3
COc1ccc(CCNC(=O)C(C)OC(=O)c2ccco2)cc1OC (stereo not given)	0	-14	.	-4.0	-3%	4	7.6	-1.3
CCn1c(SCC(=O)NCC2CCCO2)nnc1-c1ccccc1 (stereo not given)	-13	2	.	4.1	-1%	-4	1.9	0.0
CN(C)c1ccc(C2Nc3cccc4cccc(c34)N2)cc1	-4	-13	4.7	-0.3	12%	5	7.0	-0.2
Cn1c(CSCc2ccccc2Cl)n[nH]c1=S	-1	-3	-4.2	-1.9	.	-3	0.0	0.5
COc1cc2ncnc(NCc3ccc(Cl)cc3)c2cc1OC	-7	28	1.1	5.7	3%	7	2.0	-0.1
COc1cccc(CN2CCC(Oc3ccc(C(=O)N4CCCCC4)cc3)CC2)c1O	-4	6	3.2	-0.5	.	4	1.1	-0.4
CC(NC(=O)c1ccccc1F)c1nnc(SCc2nc3ccccc3c(=O)[nH]2)n1C (stereo not given)	-15	0	-1.4	3.6	.	-5	1.9	-0.2
CN(C)C(=O)c1ccc(NC(=O)CC2SC(N3CCCC3)=NC2=O)cc1 (stereo not given)	-2	-1	-0.2	-4.6	0%	.	5.0	-0.9
COc1ccc(C(=O)NCC(=O)c2ccccc2)cc1	-1	-12	-3.1	0.8	.	-2	4.0	-5.6
CC(=O)c1ccc(NC(=O)Nc2ccccc2)cc1	-21	0	.	-1.7	4%	6	?	-4.2
